# Assay outcomes: PubChem, National Center for Advancing Translational Sciences (NCATS)
# HPGD inh: inhibitors of human 15-hydroxyprostaglandin dehydrogenase (HPGD). P15428. purified HPGD, NADH fluorescence kinetic, PGE2 substrate. Potency, µM, for the others: top-dose activity change, negative = inhibition, actives largely listed as inhibitors. 150,000 compounds, 4.3% hits. AID 894; active = well fitted inhibition curve with a large enough effect (not every such curve was filed as active); inconclusive = small, poorly fitted or top-dose-only effect, or another doubt; inactive = no such curve, though single readings can be large or run the other way;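 note: top concentration of the series not given in the record; plate controls included wells without enzyme; inactives centre near -10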
# Target sequence (P15428 whole entry, looked up): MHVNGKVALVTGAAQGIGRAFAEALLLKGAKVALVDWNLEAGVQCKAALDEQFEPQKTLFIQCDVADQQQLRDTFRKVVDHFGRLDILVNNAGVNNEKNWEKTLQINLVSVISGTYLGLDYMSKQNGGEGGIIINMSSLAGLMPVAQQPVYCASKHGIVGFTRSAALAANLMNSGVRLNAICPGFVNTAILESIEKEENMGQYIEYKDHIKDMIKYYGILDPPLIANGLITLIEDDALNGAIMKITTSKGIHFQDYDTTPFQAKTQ
#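 20 nM HPGD preincubated 15 min at room temperature with compound in 50 mM Tris-HCl pH 8, 0.01% Tween 20. Started with 1 mM NAD+ and 30 uM prostaglandin E2; NADH fluorescence (360/450 nm) read 5 times over 30-s intervals, last minus first.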
# * = called active by the depositor; ? = inconclusive. % is set by controls: 0 for no effect and ±100 for the full control effect; potency is the fitted concentration of half-maximal effect.
# Preview (4 entries):
SMILES,HPGD inh
COC(=O)/C(C#N)=C/c1occc1C,-11%
COCCn1c(=S)[nH]c2cc(C(=O)N3CCN(Cc4ccc5c(c4)OCO5)CC3)ccc2c1=O,-17%
Cc1ccc(S(=O)(=O)N/N=C/c2ccc(OCC(=O)Nc3ccccc3Cl)cc2)cc1,14µM*
Cc1cc(C)cc(NC(=O)C(OC(=O)c2sccc2C)c2ccccc2)c1 (configuration not stated),3%

# The whole of this part, repeating the preview:
SMILES,HPGD inh
COC(=O)/C(C#N)=C/c1occc1C,-11%
COCCn1c(=S)[nH]c2cc(C(=O)N3CCN(Cc4ccc5c(c4)OCO5)CC3)ccc2c1=O,-17%
Cc1ccc(S(=O)(=O)N/N=C/c2ccc(OCC(=O)Nc3ccccc3Cl)cc2)cc1,14µM*
Cc1cc(C)cc(NC(=O)C(OC(=O)c2sccc2C)c2ccccc2)c1 (configuration not stated),3%
O=C(Nc1ccccc1)N1CCCC2(CCN(C(=O)c3cc(C(F)(F)F)cc(C(F)(F)F)c3)CC2)C1,-9%
O=C(O)CCC(=O)Nc1ccccc1C(=O)NCCc1ccccc1,-9%
Cn1cccc1CNC1CCCC1,0%
CC1(C(=O)O)CCC(C(=O)NC2CCCCC2)C1(C)C (configuration not stated),-2%
Cc1ccc(C(=O)CC2(O)C(=O)N(CCc3ccccc3)c3ccc(Br)cc32)o1 (configuration not stated),-14%
O=S(=O)(c1cnccc1N1CCN(/N=C/c2ccc(Cl)cc2)CC1)N1CCCCC1,-12%
CCN1CCN(CCCOc2ccc(-c3ccccc3)cc2)CC1,-11%
Cc1nn2c(Nc3ccccc3)c3c(nc2c1-c1ccccc1)CCC3,?
FC(F)(F)c1cccc(NC(=S)Nc2cccc(Cl)c2)c1,-4%
O=C(O)CSc1cccc2cccc(C(=O)O)c12,-1%
O=C(NCCc1ccccc1)c1cc2sccc2n1Cc1ccccc1,16µM*
CC1=CCC(C(=O)O)(C(=O)N/N=C/c2cccs2)C(c2ccc(Cl)cc2)C1 (configuration not stated),1%
CCOC(=O)CN1C(=O)N[C@@H](c2cccc(C(F)(F)F)c2)C(C(C)=O)=C1C,-3%
CC1(C)Cc2c(C#N)c(N3CCN(C(=O)c4ccccc4)CC3)nc(-c3ccco3)c2CS1,?
Cc1ccccc1CSCC(=O)NCc1ccco1,11µM*
COc1ccc(CCC(=O)N2CCc3ccccc32)cc1,-5%
COc1ccccc1NS(=O)(=O)c1cccc(C(=O)N/N=C(\C)c2ccc3c(c2)OCCO3)c1,-9%
O=S(=O)(CCc1ccccc1)c1nnnn1-c1ccc(F)cc1Br,-3%
CC(C(=O)Nc1ccc(F)c(F)c1F)N1CCCCCC1 (configuration not stated),-7%
CN(C)c1ccc(Sc2nnc(NC(=O)Nc3ccc(Cl)cc3Cl)s2)cc1,-11%
COc1ccc(-c2nc(CNS(=O)(=O)c3cc(OC)ccc3OC)cs2)cc1,?

# Following part
SMILES,HPGD inh
CC12c3ccccc3C(c3ccccc31)C1C(=O)N(c3cccnc3)C(=O)C12 (configuration not stated),-8%
O=C(Cn1nnc(-c2ccccc2F)n1)Nc1ccc(S(=O)(=O)NC2CCCC2)cc1,7.1µM*
O=c1cc(O)n(-c2ccccc2)c(=S)[nH]1,-12%
CC(C)(C)NC(=S)NNC(=O)c1ccccc1Cl,-13%
OCc1ccccc1O[C@H]1OC(CO)C(O)C(O)C1O (some centres not stated),5%
Cc1ccc2sc(NC(=O)c3ccc(N4C(=O)CCC4=O)cc3)nc2c1C,-15%
CC(C)CN(C(=O)COC(=O)c1ccc([N+](=O)[O-])o1)C1CCS(=O)(=O)C1 (configuration not stated),2%
Cc1ccc(/C=C/C(=O)c2ccccc2)cc1,?
COc1ccc(S(=O)(=O)N2CCCC(C(=O)NCCC3=CCCCC3)C2)cc1 (configuration not stated),-7%
CCCOC(=O)c1ccc(OCC(O)CN2C(=O)NC(C)(C)C2=O)cc1 (configuration not stated),-4%
COc1ccc(S(=O)(=O)N2CC3C4C=CC(C4)C3C2)cc1 (configuration not stated),-19%
Cc1c(NC(=O)C(C)OC(=O)c2sc3ccccc3c2Cl)c(=O)n(-c2ccccc2)n1C (configuration not stated),-9%
CCC1(C)Cc2nc3[nH]c(=S)n(-c4ccc(C)cc4)c(=O)c3cc2CO1 (configuration not stated),-16%
COn1c(=O)c(=O)n(O)c2ccccc21,-21%
O=C(CCC1COc2ccccc2O1)NCc1ccco1 (configuration not stated),?
Cc1ccccc1N1C(=O)c2sc3nc4c(c(=O)n3c2C1=O)CCC4,32µM*
O=C(O)c1c2c(c(O)c3c1CN(C1CCCCC1)CO3)OCN(C1CCCCC1)C2,-13%
CC1CC(C)CN(CCCNC(=O)CCNC(=O)Cn2ccc3ccccc3c2=O)C1 (configuration not stated),-9%
COCCCNC(=O)c1ccc2c(=O)n(C3CCCC3)c(=S)[nH]c2c1,-14%
O=C(CCn1nnc2ccccc21)Nc1nnc(Cc2ccc(F)cc2)s1,-11%
CCOc1ccc2c(c1)OC(c1ccc(OC)cc1)(C(F)(F)F)NC2=O (configuration not stated),-9%
Cc1noc(C)c1COc1cccc(C(=O)OCC(=O)N2CC(=O)Nc3ccccc32)c1,-8%
COC(=O)CSc1ncnc2c1sc1nc(-c3ccco3)c3c(c12)CC(C)(C)OC3,?
Cc1ccc(C(=O)c2ccc([N+](=O)[O-])cc2)cc1C,-18%
CCOc1ccc(NC(=O)CSc2ncn[nH]2)c([N+](=O)[O-])c1,-4%

# More records follow:
SMILES,HPGD inh
O=C(NCC1CCCO1)C(C(=O)c1ccc(F)cc1)n1ccccc1=O (configuration not stated),-12%
Cc1cccc(S(=O)(=O)Nc2ccc(C)c3c2OC(C)(C)C3)c1,-13%
COc1ccc(-c2c(C)nn(-c3ccccc3)c2N)cc1OC,-14%
c1csc(Cn2nnnc2CN2CCN(c3nc4ccccc4s3)CC2)c1,-9%
Cc1onc(-c2ccccc2)c1C(=O)N1CCCSC1=Nc1ccccc1,-20%
COCCNC(=O)C(c1ccc(C)o1)N(C(=O)c1snc(C(N)=O)c1N)c1cccc(C)c1 (configuration not stated),?
CN(Cc1ccccc1)c1ncnc2ccc(Br)cc12,-20%
Cn1c(=O)c2c(-c3cccc(F)c3)c3c(nc2n(C)c1=O)-c1ccccc1C3O (configuration not stated),-6%
COc1ccccc1[C@H]1C(c2cccc(C)c2)=NN(c2ccccc2)[C@@H]1CO,?
NC1=C([N+](=O)[O-])C(c2ccccc2)C2=C(CCCC2=O)O1 (configuration not stated),20µM*
CC(=O)NCc1ccc(-c2csc(N)n2)s1,-20%
CN(C(=O)CSC1=NCCS1)c1ccccc1,-14%
CCCN(C(=O)CSc1nnc(-c2ccoc2C)n1N)C1CCS(=O)(=O)C1 (configuration not stated),-20%
COc1ccc(Cl)cc1C(=O)NCCN(C)C,-10%
COCCNC(=O)c1cc2c(=O)n(C)c3ccccc3c2n1C,?
CCCCCn1c2nc3ccccc3nc2c2c(=O)n(CC3CCCO3)c(C)nc21 (configuration not stated),-21%
NS(=O)(=O)c1ccc(CCNc2nc(CN3CCOCC3)nc3sc4c(c23)CCC4)cc1,-9%
Cn1cc(C(=O)Nc2ccc(F)c(Cl)c2)cn1,-5%
Nc1nc(Nc2ccc(Cl)cc2Cl)nc(C(F)(F)F)n1,-26%
CCC(C)c1ccc(NC(=O)c2cccs2)cc1 (configuration not stated),-19%
Cn1nnnc1SCC(=O)NCCCc1ccccc1,-6%
NC(=O)CSc1nc2scc(-c3ccco3)c2c(=O)n1-c1ccccc1,-15%
CCOC(=O)C(C(C)=O)C(c1ccc(OCCC(C)C)cc1)C(C(C)=O)C(=O)OCC (configuration not stated),-20%
O=C(NCc1ccc2c(c1)OCO2)c1cc(-c2ccccc2Cl)on1,?
C=CCn1c(Cc2cccs2)nnc1SCC(=O)Nc1ccc(OC)cc1,0%

# Some of these compounds in order of heavy-atom count, largest number first.
SMILES,HPGD inh
CCOC(=O)C(C(C)=O)C(c1ccc(OCCC(C)C)cc1)C(C(C)=O)C(=O)OCC (configuration not stated),-20%
CCCN(C(=O)CSc1nnc(-c2ccoc2C)n1N)C1CCS(=O)(=O)C1 (configuration not stated),-20%
CC(=O)NCc1ccc(-c2csc(N)n2)s1,-20%

# Four entries from above, with each value named:
> Cn1nnnc1SCC(=O)NCCCc1ccccc1
  HPGD inh: -6%

> NC(=O)CSc1nc2scc(-c3ccco3)c2c(=O)n1-c1ccccc1
  HPGD inh: -15%

> CCOC(=O)C(C(C)=O)C(c1ccc(OCCC(C)C)cc1)C(C(C)=O)C(=O)OCC (configuration not stated)
  HPGD inh: -20%

> O=C(NCc1ccc2c(c1)OCO2)c1cc(-c2ccccc2Cl)on1
  HPGD inh: ?

# (cont.)
SMILES,HPGD inh
Cc1cc(NS(=O)(=O)c2ccc(NC(=S)NC(=O)c3ccc(C(C)(C)C)cc3)cc2)no1,18µM*
Cc1ccc(N2CC(C(=O)NCCCn3ccnc3)CC2=O)cc1 (configuration not stated),-8%
Cc1ccc(-c2csc(/C(C#N)=C/Nc3ccccc3SC(F)(F)F)n2)cc1,-14%
COc1ccc(S(=O)(=O)N2CCC(CN3C(=O)c4cccc5cccc(c45)C3=O)CC2)cc1,?
O=C(Cc1cccs1)Nc1ccc(S(=O)(=O)Nc2ncccn2)cc1,-23%
CC(NC(=O)CSc1nc2c(c(C(F)(F)F)n1)CCc1ccccc1-2)c1ccccc1 (configuration not stated),-17%
COc1ccc(/C=C/C(=O)N2c3ccccc3Sc3ccc(C(F)(F)F)cc32)cc1,?
CCN(CC)c1ncnc2sc3c(c12)CCC3,-23%
COc1ccccc1NC(=O)CSC1=NCCN1,-6%
COc1ccc(S(=O)(=O)Nc2ccc(S(=O)(=O)Nc3ccc(F)cc3)cc2)cc1C,-13%
O=C(Nc1nccs1)C(NS(=O)(=O)c1ccc(Br)s1)c1ccccc1 (configuration not stated),-9%
O=C(Cc1ccc(-n2c(=O)[nH]c3ccsc3c2=O)cc1)N1CCN(c2ccc(Cl)cc2)CC1,-3%
COc1cc2c(cc1OC)C(/C=C/c1ccc(OC)c(OC)c1OC)=NCC2,-16%
CCN1C(=O)c2ccc(C(=O)Nc3nccs3)cc2C1=O,-8%
COC(=O)N1CCC2(CC1)CN(c1cccc(-c3ccccc3)c1)C2,?
O=C(CN(C(=O)CNC(=O)c1ccco1)c1ccc2c(c1)OCO2)NC1CCCCC1,-4%
CCC(O)c1cc2c(cc1NC(=O)c1ccc(C)cc1)OCCO2 (configuration not stated),-9%
COc1ccc(C(=O)NCc2cccnc2)cc1Br,-10%
COC(=O)C1=C(C(=O)OC)[C@@H]2Nc3ccccc3[C@@]23C[C@@H](C(=O)OC)N(S(=O)(=O)c2ccc(C#N)cc2)C3=N1,-11%
CC(C)(C)n1ncc(Oc2ccccc2[N+](=O)[O-])c(Cl)c1=O,?
O=C(NCc1cccc(Cl)c1)NCc1cccc(Cl)c1,2%
COc1ccccc1CNC(=O)Cn1nnc(-c2ccncc2)n1,-20%
C=CCn1c(=N)n(CC(=O)OC)c2ccccc21,-9%
COc1ccc(N2C(=O)CCC(C(=O)N3CCCCC3)C2c2ccc(F)cc2)cc1 (configuration not stated),2%
O=C(NNC(=S)Nc1ccc(Cl)cc1)c1ccccc1OC(F)F,-14%

# A second format for part of the listing above:
SMILES	HPGD inh
COc1ccc(C(=O)NCc2cccnc2)cc1Br	-10%
COC(=O)C1=C(C(=O)OC)[C@@H]2Nc3ccccc3[C@@]23C[C@@H](C(=O)OC)N(S(=O)(=O)c2ccc(C#N)cc2)C3=N1	-11%

# (listing goes on)
SMILES,HPGD inh
Cc1ccccc1OCCC(=O)NCCc1ccc(S(N)(=O)=O)cc1,-3%
C[C@@H]1OC(OC2C(OC3CC[C@@]4(C)C5CC=C6C7CC(C)(C)CC[C@@]7(C(=O)O)CCC6(C)C5(C)CCC4[C@]3(C)CO)OCC(O)C2O)C(O)C(O)C1O (some centres not stated),-5%
O=S1(=O)c2ccccc2N=NN1Cc1ccc(Cl)cc1,28µM*
CCNC(=O)COc1cccc2ccccc12,-10%
Cc1ccc(SCCC(=O)Nc2c(C)n(C)n(-c3ccccc3)c2=O)cc1,-10%
COc1ccc(O)cc1,-7%
COC(=O)Cn1c(CCS(=O)(=O)c2ccc(Cl)cc2)nc2ccccc21,-5%
Cc1ccc(C(=O)/C=C/c2cn(CN3CCN(C)CC3)c3ccccc23)cc1,?
COc1cc(C(=O)N2CCN(C/C=C/c3ccccc3)CC2)cc(OC)c1OC,-3%
CSCCC(NS(=O)(=O)c1ccc(Cl)cc1)C(=O)OCC(=O)NC1CCCCC1 (configuration not stated),-5%
COc1ccccc1N1CCN(C(=O)C(C)N(c2ccccc2)S(C)(=O)=O)CC1 (configuration not stated),-14%
Cc1nccn1-c1c2c(c(C#N)c3nc4ccccc4n13)CCC2,-14%
O=C(CSc1nnnn1-c1ccccc1)Nc1ncc(Cc2cccc(Cl)c2Cl)s1,-5%
O=C(NC1CCCCCCC1)NC1CCCCC1,-13%
Cc1cc(C)cc(OCc2ccc(C(=O)O)o2)c1,-3%
Cc1cc(C)nc(SC2CCCCC2NS(=O)(=O)c2ccc(Cl)cc2)n1 (configuration not stated),-2%
CCN(CC)c1nc2ccccc2n2cnnc12,-9%
CCOC(=O)C1C(=O)NC(c2ccccc2)=NC1c1ccc(F)cc1 (configuration not stated),-5%
Cc1ccc(Nc2nc(CSc3nnnn3-c3ccccc3)cc(=O)[nH]2)cc1,-11%
CCc1nc2ccccc2c(C(=O)OCC(=O)NCc2ccc3c(c2)OCO3)c1C,-16%
C#Cc1ccc(C(=O)Nc2cc(C(N)=O)ccc2N2CCOCC2)cc1,-23%
COc1ccc(N(CN2C(=O)c3ccccc3C2=O)C(=O)C(C)C)cc1,-7%
Cc1cn(C2CCC(CO)O2)c(=O)[nH]c1=O (configuration not stated),-8%

# Only part of the results is shown. The share of hits here may be higher or lower than overall.
